From PubChem BioAssay
CapD inh – inhibitors of Bacillus anthracis CapD enzyme | purified CapD enzyme, fluorescence intensity read-out; stronger effect = lower value; some hits fall short of the stated cut | z-score (concentration not given with the values) | hit rate 0.23% among 140,000;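 active = z-score under -4 in either of two replicates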;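 note: stock transfer was 100 nL into about 40 µL; score is relative to mean and spread of the plate; one replicate is shown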
AID504770 – growth inhibitors of E. coli YBA685 in a screen for V. cholerae RctB (chromosome II replication) inhibitors | z-score (no concentration beside the values) | AID 504770 | E. coli YBA685 rctB-dependent plasmid, OD600 growth, 3 h; stronger effect = lower value | hit rate 0.27% among 130,000;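 active = z-score under -2 on both plates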;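 note: wells of about 30 µL received 100 nL stock; score is relative to mean and SD of the test wells; the first replicate is given; strong numbers were not always called active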
* hit, by the source's call; / = not tested or not shown. An excerpt, so the mix of outcomes need not match the whole.

Start of the data: the first seven compounds, to show the layout:
SMILES | CapD inh | AID504770
O=c1[nH]c(NCCCN2CCOCC2)nnc1-c1ccccc1 | / | -0.4
CCN(CC)C(=O)c1cc(C)no1 | -1.82 | -0.35
O=C(O)c1ccc(N=Cc2cccs2)cc1 | 1.13 | 0.15
CC(C)n1c(O)c(C2=c3ccccc3=NC2=O)sc1=S | -0.615 | -0.05
CC(C)NC(=S)Nc1ccc2nc3n(c(=O)c2c1)CCCCC3 | 0.235 | 0.4
CN(Cc1ccccc1)C(=O)Cn1cnc2onc(-c3ccc(Cl)cc3)c2c1=O | 0.065 | 2.6
CCOC(=O)N1CCN(C(=O)c2sc3cc(F)ccc3c2Cl)CC1 | -0.27 | 0.3

Main list, from the start:
SMILES | CapD inh | AID504770
O=c1[nH]c(NCCCN2CCOCC2)nnc1-c1ccccc1 | / | -0.4
CCN(CC)C(=O)c1cc(C)no1 | -1.82 | -0.35
O=C(O)c1ccc(N=Cc2cccs2)cc1 | 1.13 | 0.15
CC(C)n1c(O)c(C2=c3ccccc3=NC2=O)sc1=S | -0.615 | -0.05
CC(C)NC(=S)Nc1ccc2nc3n(c(=O)c2c1)CCCCC3 | 0.235 | 0.4
CN(Cc1ccccc1)C(=O)Cn1cnc2onc(-c3ccc(Cl)cc3)c2c1=O | 0.065 | 2.6
CCOC(=O)N1CCN(C(=O)c2sc3cc(F)ccc3c2Cl)CC1 | -0.27 | 0.3
CC(C)(C)S(=O)(=O)c1cccs1 | 0.35 | -0.4
N#C/C(N)=C(\C#N)N=Cc1ccc(C#N)cc1 | -1.21 | 0.45
COc1cc(/C=C2\C(=O)NC(=O)N(c3cccc(Br)c3)C2=O)c([N+](=O)[O-])cc1OC | 0.345 | /

Copied from the list:
AID504770, CN(Cc1ccccc1)C(=O)Cn1cnc2onc(-c3ccc(Cl)cc3)c2c1=O reads 2.6
AID504770, O=c1[nH]c(NCCCN2CCOCC2)nnc1-c1ccccc1 reads -0.4
CapD inh, CC(C)(C)S(=O)(=O)c1cccs1 reads 0.35

New compounds follow
SMILES | CapD inh | AID504770
O=C(O)Cc1csc2ccccc12 | -0.355 | /
Cc1onc(-c2ccccc2Cl)c1C(=O)Nc1ccc(Nc2ccccc2)c2c1C(=O)c1ccccc1C2=O | 0.075 | /
CC(=O)NS(=O)(=O)c1ccc(N=Cc2ccccc2O)cc1 | -0.56 | -0.25
Cc1cc2c(=O)n(Cc3ccco3)c(SCc3nc4ccccc4[nH]3)nc2s1 | / | -0.25
O=C(O)CCCNc1nc(-c2ccccc2)cs1 | / | 0.15
O=S(=O)(Cc1ccccc1)N1CCC(c2nc3ccccc3s2)CC1 | -0.6 | /
Cc1ccc2cc3c(nc2c1)N(c1ccccc1)CC3 | 0.155 | 0.05
CC(C)(C)C(=O)[C@@H]1[C@@H](c2ccccc2)C(C#N)(C#N)[C@H]2C=Cc3ccccc3N12 | 9.07 | /
CCSC1=C(C#N)C(=O)NC(c2ccc(OC)cc2)S1 (centres undefined) | 1.19 | 0.35
CCC1=Nc2cc(C(=O)NCCN3CCOCC3)ccc2Sc2ccccc21 | -0.07 | -0.35
O=S(=O)(NC1CCCc2ccccc21)c1cccc2nonc12 (centres undefined) | -0.945 | -0.8
CCN(CC)C(=O)c1ccc(I)cc1 | 0.11 | -0.4
CN1CC(C(=O)N2CCN(c3ccccc3F)CC2)c2ccccc2C1=O (centres undefined) | -0.615 | -0.6
COc1ccc(-c2ccc(CCC(=O)O)o2)cc1 | 5.46 | -0.95
CS(=O)(=O)c1ccc2ccn(OCC(=O)N3CCOCC3)c2c1 | 17.7 | /
O=C(CC(c1ccccc1)c1cc(Br)ccc1O)NCCCN1CCOCC1 (centres undefined) | -0.715 | -0.7
O=C(c1cc2n(n1)C(C(F)(F)F)CC(c1ccc3c(c1)OCO3)N2)N1CCN(c2ccccc2Cl)CC1 (centres undefined) | 0.385 | /
CCOC(=O)C1=C(C)N(c2ccccc2)C(=O)C1CC(=O)O (centres undefined) | 2.39 | -1
OCc1ccc(OCc2cnc(Cl)s2)cc1 | 0.555 | 0.85
CC1(C)CC(=O)C2=C(C1)OC(N)=C(C#N)C2c1cc(Cl)cc(Cl)c1OC(=O)N1CCOCC1 (centres undefined) | -0.55 | /
O=C1Nc2ccccc2C12CC(c1ccc(F)c(Cl)c1)=NN2 (centres undefined) | 0.265 | -0.9
Cc1nc(-c2cnn3c(C)cc(C(F)(F)F)nc23)no1 | 0.41 | -0.15
Cc1ccc2c(c1)C1CN(C)CCC1N2C(=O)C1CCCC1 (centres undefined) | 1.26 | /
O=C1C2C3C=CC(C3)C2C(=O)N1C1CCS(=O)(=O)C1 (centres undefined) | -0.29 | -0.35
CSC(C)C(=O)C1=C(O)c2ccccc2C1=O (centres undefined) | -2.13 | 1.65
O=C(NC1CC1)c1cc(-c2cccnc2)nc2ccc(S(=O)(=O)N3CCCCCC3)cc12 | 0.41 | -0.55
O=C1C(c2ccccc2)=C(OC(=O)c2ccccc2[N+](=O)[O-])c2ccccc21 | -0.42 | /
Cc1ccc(S(=O)(=O)NCCN2CCOCC2)cc1-c1nnc2c3ccccc3c(C)nn12 | 0.575 | -0.2
CSC1=C(C#N)C(c2cccs2)C2=C(CCCC2=O)N1 (centres undefined) | 1.72 | /
Cc1ccc2nc(-c3ccc(NC(=O)c4ccncc4)cc3)sc2c1 | 5.47 | 0.15
Cc1ccc2c(c1)c(-c1ccccc1)c(-c1ccccc1)n2CC(O)Cn1c(C)cc(C)nc1=O (centres undefined) | 0 | -0.1
O=C(O)C1CCN(c2nc3ccccc3n2Cc2cccc(F)c2)CC1 | -0.38 | -0.3
CC(C)n1ncc2c(C(=O)NCC3COc4ccccc4O3)cc(C3CC3)nc21 (centres undefined) | / | 0.25
O=S(=O)(NCCCO)c1ccc2c(c1)Cc1cc(S(=O)(=O)NCCCO)ccc1-2 | / | -0.25
Cn1c2c(c(=O)n(C)c1=O)CN(Cc1ccccc1)CN2 | -0.03 | 1
COCCn1c(SC(C)C(N)=O)nc2ccccc21 (centres undefined) | / | -0.55
O=C(NCc1ccco1)c1ccccc1SCc1ccc(F)cc1 | -0.115 | 0.15
COc1cc(OC)c(C(=O)OCC#N)cc1OC | / | 0.85
O=C(CN1C(=O)C2C3C=CC(C3)C2C1=O)Nc1nncs1 (centres undefined) | 0.155 | -0.05
CCC(C)NC(=O)CSc1nc2ccsc2c(=O)n1CCc1ccc(Cl)cc1 (centres undefined) | 0.085 | 1.65

4 entries picked at random from the list so far:
SMILES | CapD inh | AID504770
O=C(NCc1ccco1)c1ccccc1SCc1ccc(F)cc1 | -0.115 | 0.15
Cc1ccc2c(c1)c(-c1ccccc1)c(-c1ccccc1)n2CC(O)Cn1c(C)cc(C)nc1=O (centres undefined) | 0 | -0.1
COc1cc(OC)c(C(=O)OCC#N)cc1OC | / | 0.85
O=C(O)C1CCN(c2nc3ccccc3n2Cc2cccc(F)c2)CC1 | -0.38 | -0.3

More entries.
SMILES | CapD inh | AID504770
COc1ccccc1NC(=O)c1noc2ncn(C)c(=O)c12 | -0.765 | 0.3
Cc1cccc(C)c1OC(=O)CN(c1ccccc1)S(=O)(=O)c1ccccc1 | -0.3 | /
CCN(CC)C(=O)c1ccccc1-c1ccccc1C(=O)O | / | 0.7
O=C(/C=C/c1ccc(OC(F)F)cc1)Oc1ccc(-n2cnnn2)cc1 | / | 0.75
CCn1cc(S(=O)(=O)CC(=O)NC2CCCCC2)c2ccccc21 | -0.575 | 1.5
CCc1ccc2[nH]c(=O)c(C(c3nnnn3C3CCCC3)N(C)Cc3ccccc3)cc2c1 (centres undefined) | / | -0.15
Cc1cc(C)cc(NC(=O)Cn2cnc3c2c(=O)n(C)c(=O)n3C)c1 | 0.12 | -0.5
CCN(CC)S(=O)(=O)c1ccc(C(=O)Nc2c3c(nn2-c2ccc(OC)cc2)CS(=O)(=O)C3)cc1 | -0.335 | /
CC(C)CCNC(=O)C1CCN(Cc2ccccc2O)CC1 | / | -0.3
CCCCCCc1c(C)c2ccc(OC(C)C(=O)O)c(C)c2oc1=O (centres undefined) | 52.2 | -0.85
CC(C)(C)NC(=O)NCC1COC2(CCCCC2)O1 (centres undefined) | / | 1.85
Cc1ccc(C)n1-c1ccsc1C(=O)NN | 0.87 | 0.25
COCCNC(=O)c1cc2sc3ccccc3c2s1 | 5.79 | 2.3
COc1cccc(NC(=S)Nc2ccc3nc4n(c(=O)c3c2)CCCCC4)c1 | -0.315 | 0.1
Cc1nc(-c2ccc(S(=O)(=O)NCc3ccco3)s2)cs1 | 2.17 | 0.4
Nc1ccc(C(=O)N2CCCC2)cc1 | / | -0.05
CC(C)(O)/C(=C\C#N)n1c(=O)oc2ccccc21 | / | -0.15
CCOC(=O)N1CCN(S(=O)(=O)c2ccc(C(=O)Nc3nc(-c4cc5ccccc5oc4=O)cs3)cc2)CC1 | -0.295 | /
c1cc(CN2CCNCC2)cs1 | / | -0.8
CN1CCCN(Cc2cc(Br)cs2)CC1 | -0.085 | -0.4
COc1cccc(C(=O)COc2cccc(NC(=O)c3ccco3)c2)c1 | / | -0.35
CC(C)C(NC(=O)Cn1c(=O)oc2ccccc21)c1nc2ccccc2[nH]1 (centres undefined) | / | -0.05
Cc1nc2cc(NC(=O)c3ccc4c(c3)OCCO4)ccc2s1 | 0.505 | -0.6
Cc1c(C)c(C)c(C(=O)C2CCN(S(=O)(=O)c3cc(C(F)(F)F)cc(C(F)(F)F)c3)CC2)c(C)c1C | -0.33 | /
O=C1CC(=O)N2N=C(c3ccccc3)SC2=N1 | -0.21 | 2.05
O=C1C(=C2SCCS2)CC/C1=C\c1ccccc1 | / | -0.5
Cc1cc(O)c(C(=O)Nc2ccc(Cl)c(Cl)c2)c(=O)n1CC1CCCO1 (centres undefined) | / | -0.5
NC(=S)/N=C1\CCCCC1=C1CCCCC1 | -0.735 | 0.05
CCC1S/C(=N\C(=O)Nc2ccc(Cl)c(Cl)c2)NC1=O (centres undefined) | 0.08 | 0.45
C/C(=N\O)C1/C(=N/O)CC2C1C2(C)C (centres undefined) | -0.31 | 1.05
Oc1ccc(-c2[nH]ncc2-c2cnn(-c3ccccc3)c2)c(O)c1 | 1.33 | 0.05
Cn1nc(NC(=O)CC(C)(C)CC(=O)O)c2c(F)cccc21 | -1.34 | -0.5
CCc1cccc(NC(=S)N(CCOC)C(C)c2cccs2)c1 (centres undefined) | -0.51 | 0.3
C=CCSc1nc(Oc2ccccc2)c2sc3nc(C)cc(C)c3c2n1 | 0.14 | /
NC(=O)c1oc2ccccc2c1NC(=O)COc1ccccc1 | / | 0.1
Cc1ccc(S(=O)(=O)C(C)(C)C)s1 | -0.13 | -0.05
CCOc1ccc(-c2nnn(CCC#N)n2)cc1OC | / | -0.75
COc1nc(C#N)nc(N2CCCCC2)n1 | 0.24 | 1.05
O=C(c1cccs1)c1coc2ccc(O)cc12 | 0.12 | 0.8
CCOC(=O)CSc1nc2ccc(NC(=O)CSc3nc4sc5c(c4c(=O)n3C)CCCC5)cc2s1 | 0.525 | /
O=C1N2c3ccccc3CCc3cccc(c32)C1(O)C(F)(F)F (centres undefined) | / | -0.6
CCOC(=O)/C(C#N)=C(\C)C1CC1 | 0.635 | 1.25
CO/C(N)=N/C(=S)Nc1ccc(F)cc1F | 0.07 | -0.15
CCOC(=O)c1sc(S(C)=O)c2c1CCc1conc1-2 (centres undefined) | 2.79 | -0.65
CC1=C(C(=O)N2CCOCC2)C(c2c(F)cccc2Cl)C2=C(CCCC2=O)N1 (centres undefined) | 46.7 | -0.2
CCCCn1c(=N)c(C(N)=O)cc2c(=O)n3ccccc3nc21 | / | 0.45
CC(=O)n1c2c(c3ccccc31)OC(N)=C(C#N)C2c1cccnc1 (centres undefined) | 2.2 | /
COc1cccc(NC(=S)Nc2ccc(N(C)C)cc2)c1 | 0.025 | 0.6
CCCn1c2ccccc2c2nnc(SCCN3CCCCC3)nc21 | -0.105 | -0.6
O=C(c1cccc(Cl)c1)N1CCCC1 | 0.69 | 0.85

(continued)
SMILES | CapD inh | AID504770
Cc1cc(=O)c2c(ccc3ccccc32)[nH]1 | / | 0.45
Nc1ccc(Cc2nc3cc4ccccc4cc3[nH]2)cc1 | 0.29 | 1.85
CC(O)CNC1CCC2CCCCC2C1 (centres undefined) | / | -0.45
Cc1cccc(C(=O)NCc2nc3ccccc3[nH]2)c1 | 0.115 | -0.75
Nc1cc(N)nc(SCC(=O)N(Cc2cccs2)c2ccc3c(c2)OCCO3)n1 | / | 1.25
O=C(Nc1cc(Cl)ccc1Oc1ccc(Cl)c2ccccc12)c1cc(Cl)cc(Cl)c1O | 6.57 | /
O=C1NC(=O)N(c2ccccc2)C(=O)/C1=C/c1cc(Br)c(N2CCOCC2)o1 | -0.17 | /
COc1ccc(CCNC(=O)c2coc3ccccc3c2=O)cc1 | 0.765 | 0.4
CCC1(CC)C(=O)C(C)(C)C(=O)OC1c1cccs1 (centres undefined) | 0.105 | -1.05
N#C/C(=C(/O)CN1C(=O)c2ccccc2C1=O)c1nc2ccccc2[nH]1 | / | 0.1
O=S(=O)(CCS(=O)(=O)c1ccccn1)c1ccc(Cl)cc1 | -0.66 | -0.4
COc1ccc2oc(=O)cc(-c3cc4cccc(OC)c4o3)c2c1 | / | 1.75
O=C(NCC1CCN(CCc2ccc(F)cc2)CC1)Nc1ccc2c(c1)OCO2 | -0.155 | -0.8
CCc1cc2c(NC3CCCC3)ncnc2s1 | 0.1 | 0.7
O=C(c1cc2nc(-c3cccs3)cc(C(F)(F)F)n2n1)N1CCN(C(=O)c2ccco2)CC1 | 1.8 | /
CCCOc1cccc(C(=O)NC(C)c2ccncc2)c1 (centres undefined) | -0.865 | -0.05
Cc1ccc(S(=O)(=O)N(C)c2ccc(OCC(=O)OCc3nnc(-c4ccccc4)o3)cc2)cc1 | / | 0.45
c1ccc(CCn2cc(-c3ccncc3)cn2)cc1 | -0.5 | /

A stretch of the results above:
SMILES | CapD inh | AID504770
Cc1ccc(S(=O)(=O)N(C)c2ccc(OCC(=O)OCc3nnc(-c4ccccc4)o3)cc2)cc1 | / | 0.45
c1ccc(CCn2cc(-c3ccncc3)cn2)cc1 | -0.5 | /
